PABP polyA inh: PABP poly(A) RNA binding inhibitors, primary screen, biochemical, fluorescence polarization, uHTS. Polyadenylate-binding protein 1 (Homo sapiens), P11940. inhibition, % at 35 µM. actives 1% (n = 290,000). AID 2014, 2009;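 active = 50% or more with normal probe brightness, or confirmed in later tests; inconclusive = above 50% with abnormal brightness, or retests that disagree; inactive = below 50% or failed in later tests; about a fifth of its hits are not listed in these tables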;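 also: calls also rest on retests at 20 µM and on dose response follow-up; controls were probe without protein and protein plus probe with vehicle; some compounds called inactive have numbers as strong as hits; many hits fall short of the cut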
MT1-MMP act inh: blockers of MT1-MMP proenzyme processing, primary screen, HT1080 RFP-PRO-GFP cells, GFP/RFP fluorescence | Matrix metalloproteinase-14 (Homo sapiens), P50281 | actives 0.061% (n = 360,000) | GFP/RFP ratio change, % at 20 µM | GFP/RFP ratio fluorescence, overnight; percent of plate control window, DMSO zero;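 active = GFP/RFP ratio change of at least 30% with cell ATP level not reduced by more than half and red fluorescence within 50% of control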; also: strong numbers were not always called active
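Assay system: HT1080 cells carrying an RFP-PRO-GFP reporter | Dosing: Single dose of 20 µM compound, 1% DMSO final | Incubation: Cells overnight before dosing, compound overnight, 37 °C, 5% CO2 | Evaluation: GFP/RFP fluorescence ratio | Control set: DMSO and RFP-L50D-GFP cell wells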
eIF4H FP inh: human eIF4H binding inhibitors, primary screen, translation initiation inhibitor project, biochemical, uHTS, fluorescence polarization; Eukaryotic translation initiation factor 4H (Homo sapiens), Q15056; eIF4H fluorescence polarization binding assay; inhibition, % at 35 µM; actives 0.94% (n = 290,000); AID 2012, 2009;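 active = 50% or more with normal probe brightness, or confirmed in later tests; inconclusive = above 50% with abnormal brightness, or retests that disagree; inactive = below 50% or failed in later tests; about a fifth of its hits are not listed in these tables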;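 also: calls also rest on retests at 20 µM and on dose response follow-up; 0% = protein and probe with vehicle and 100% = probe without protein; strong numbers were not always called active; many hits fall short of the cut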
Rce1 inhib: yeast Rce1p protease inhibitors, primary screen, biochemical, fluorescence, cell-free homogeneous; yeast membranes, quenched prenylated peptide cleavage fluorescence; calls only; actives 0.27% (n = 290,000); AID 2563, 2010;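 active = fall in fluorescence gain of 50% or more versus controls, with final raw signal at or below 3038400; inconclusive = same 50% fall but final raw signal above 3038400; inactive = fall in fluorescence gain under 50%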;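 also: plate controls were neutral control wells for no effect and wells lacking membranes for full effect; tested at 10 µM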
Target sequence (Q03530 whole entry, looked up): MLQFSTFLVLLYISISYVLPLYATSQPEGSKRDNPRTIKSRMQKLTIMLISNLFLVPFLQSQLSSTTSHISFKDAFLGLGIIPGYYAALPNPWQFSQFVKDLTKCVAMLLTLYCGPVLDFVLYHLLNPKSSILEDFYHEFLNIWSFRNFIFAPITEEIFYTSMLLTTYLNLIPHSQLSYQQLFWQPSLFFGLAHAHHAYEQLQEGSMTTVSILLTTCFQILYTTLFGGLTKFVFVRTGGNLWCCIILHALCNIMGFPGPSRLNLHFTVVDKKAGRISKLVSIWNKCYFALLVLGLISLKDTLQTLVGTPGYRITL
HIV Env fusion: inhibitors of HIV-1 Env-driven cell-cell fusion, primary screen, HeLa-JRFL effector, CEM21 target cells, luciferase | inhibition, % at 12.3 µM | actives 1.1% (n = 360,000);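 active = mean replicate inhibition score of at least 50 and every replicate individually at or above 50; inconclusive = only one of the two criteria met; inactive = mean below 50 and not all replicates reaching 50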;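 also: 0% = plate neutral controls and 100% = maraviroc near 300 nM; one replicate is shown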
UUG fidelity: modulators of yeast start codon fidelity, primary screen, whole organism, S. cerevisiae, single point, plate reader; AID 602363, 2012; activity score, % at 18.7 µM; actives 0.13% (n = 350,000); S. cerevisiae UUG-firefly luciferase reporter, luminescence/redox ratio;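 active = replicate mean at a twofold rise or more, about +100% in these data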;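 also: firefly luciferase made from a UUG start codon reports start codon fidelity; reporter light over untreated wells divided by growth signal over untreated wells; some hits fall short of that in this replicate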
CSC inhib: cancer stem cell viability inhibitors, primary screen, luminescence. cancer stem cell-like cells viability. inhibition, % at 7.5 µM. actives 1.1% (n = 300,000). AID 2717, 2010;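 active = mean at 75% or more and at least half the replicates too; inconclusive = mean and replicates disagree; tested in HMLE shEcad cells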;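 also: 0% = median of negative and 100% = median of positive control wells; the first replicate is given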
eIF4H FP inh retest: recorded beside eIF4H FP inh, whose call it bears; inhibition, %; compound at 20 µM; confirmation average;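 mean of two retest wells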
PABP polyA inh retest: second read-out of PABP polyA inh, no call of its own (marks repeat the call); inhibition, %; compound at 20 µM; confirmation repeats;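 mean of two retest wells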
MT1-MMP act inh RFP: recorded beside MT1-MMP act inh, whose call it bears; RFP signal change, %; measured here: RFP expression control read;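 0 = vehicle wells; hits needed this value within 50% of zero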
An asterisk follows results filed as active; i = inactive; ? = inconclusive; . = not tested or not shown; + = active, no number.

SMILES	PABP polyA inh	MT1-MMP act inh	MT1-MMP act inh RFP	eIF4H FP inh	Rce1 inhib	HIV Env fusion	UUG fidelity	CSC inhib	others
O=C(NCCN1CCOCC1)c1ccc(N2CCCC2)c([N+](=O)[O-])c1	12	2	6	-1	i	-17	.	6
CC(=O)N1N=C(c2ccccc2)CC1c1cccc([N+](=O)[O-])c1 (stereo unspecified)	13	2	-1	3	i	12	-7	-7
CN(C(=O)COc1ccc(Cl)cc1)C1(C)CCS(=O)(=O)C1 (stereo unspecified)	.	3	3	.	i	.	-17	10
Cc1nn(CC(=O)NCc2cccs2)c(=O)c2nn(-c3ccccc3)c(C)c12	4	5	3	39	i	-2	-6	-7
COc1ccc(-c2c(C)nn3c(C)cc(C)nc23)cc1	6	8	-2	14	i	-311	1	-10
Cc1cc(C)n(-c2ccc(NC(=O)C3CCCCN3Cc3cccc4c3OCO4)cc2)n1 (stereo unspecified)	-6	-5	-4	0	i	20	-7	.
O=C(Oc1ccc2cccc(OC(=O)N3CCOCC3)c2c1)N1CCOCC1	0	-3	1	-12	i	.	-4	-4
Cc1cc(N2CCOCC2)ccc1/C=C1\NC(=O)N(Cc2ccccc2)C1=O	2	1	-9	-15	i	14	.	18
O=C(Cn1nc(-c2cccc(Cl)c2)ccc1=O)NCC1COCCO1 (stereo unspecified)	.	-3	-2	.	i	3	-3	-14
O=C(NCC(=O)N(Cc1ccc(F)cc1)C(C(=O)NCC1CCCO1)c1ccccc1)c1ccco1 (stereo unspecified)	-2	3	6	0	i	14	-13	0
Cc1c(O)c(=O)ccn1Cc1ccccc1	-4	3	4	8	i	-118	11	-2
CCN(CC)CCCNC(=O)c1ccccc1C	1	-1	8	-1	i	-86	-18	0
O=C(COC(=O)CNC(=O)c1ccc(Cl)cc1Cl)NNC(=O)c1ccccc1	.	-4	1	.	.	.	0	-5
CCOC(=O)c1c(NC(=O)CN2CCOCC2)sc2c1CCCC2	8	1	-5	-6	i	-128	6	-6
C/C(=C\c1ccccc1)C1NC(=O)c2c(sc3c2CCCC3)N1 (stereo unspecified)	-11	-1	-1	1	i	-104	.	50
O=C(COC(=O)c1cc(=O)[nH]c2ccccc12)Nc1ccc(Cl)cn1	.	-2	1	.	i	2	-14	3
Cc1cccc(-n2nnnc2SCC(=O)c2cc(C)n(Cc3ccco3)c2C)c1	29	-3	1	58*	i	3	-8	24	eIF4H FP inh retest=97*;PABP polyA inh retest=36
CC1(C)NC(=O)N(CCOCCOc2ccccc2)C1=O	38	2	4	0	i	-20	-6	-14
Cc1ccc(C)c(SCC(=O)NNC(=O)c2csc(N3CCOCC3)n2)c1	-4	1	-1	7	i	.	-6	.
COc1ccc(C)cc1NC(=O)CN(Cc1nnc(-c2ccc(Cl)cc2)o1)C1CCCC1	3	-12	-15	3	i	-22	-2	6
Cc1ccc(/C=N/n2c(-c3cccc(Cl)c3)n[nH]c2=S)o1	4	3	2	5	i	5	-11	3
O=C(Cn1c(=O)oc2cc(S(=O)(=O)N3CCCC3)ccc21)Nc1ccccc1Br	-3	1	-1	-2	i	.	-13	3
CCCC(=O)c1ccc(N2CCCCC2)c(F)c1	-3	0	-1	-4	i	-16	.	-3
COc1ccc(-c2ccccc2)cc1NCc1ccccc1C	0	-1	2	-10	i	-15	-6	-3
CCCN(CC(=O)Nc1ccccc1C)C(=O)C1CCN(S(=O)(=O)c2ccccc2C(F)(F)F)CC1	.	0	-1	.	i	-1	.	-1

Some of these compounds in order of length of the SMILES, lowest first:
SMILES	PABP polyA inh	MT1-MMP act inh	MT1-MMP act inh RFP	eIF4H FP inh	Rce1 inhib	HIV Env fusion	UUG fidelity	CSC inhib	others
Cc1ccc(/C=N/n2c(-c3cccc(Cl)c3)n[nH]c2=S)o1	4	3	2	5	i	5	-11	3
O=C(Oc1ccc2cccc(OC(=O)N3CCOCC3)c2c1)N1CCOCC1	0	-3	1	-12	i	.	-4	-4
O=C(COC(=O)c1cc(=O)[nH]c2ccccc12)Nc1ccc(Cl)cn1	.	-2	1	.	i	2	-14	3
O=C(COC(=O)CNC(=O)c1ccc(Cl)cc1Cl)NNC(=O)c1ccccc1	.	-4	1	.	.	.	0	-5
Cc1nn(CC(=O)NCc2cccs2)c(=O)c2nn(-c3ccccc3)c(C)c12	4	5	3	39	i	-2	-6	-7

(list continues)
SMILES	PABP polyA inh	MT1-MMP act inh	MT1-MMP act inh RFP	eIF4H FP inh	Rce1 inhib	HIV Env fusion	UUG fidelity	CSC inhib	others
Cc1ccc(NC(=O)CSc2nc3[nH]ncc3c(=O)[nH]2)cc1	-1	2	1	-1	i	6	-15	8
Cc1ccc(C)c(C2=CSC3=NCCN23)c1	0	-5	-1	-3	i	.	-14	-5
COc1ccc(NC(=O)Cc2nnc(SCC(=O)c3ccc(F)cc3)n2C)cc1	-5	-1	0	3	i	-3	-9	.
O=C(NC1CCCC1)C(c1cc2c(cc1[N+](=O)[O-])OCO2)N1CCCC1 (stereo unspecified)	1	-2	1	7	i	-8	.	-18
CN(/N=C/c1ccccc1)C(=S)c1ccccc1	.	0	-1	.	i	-11	.	8
CCc1nnc(NC(=O)OCc2ccccc2)s1	0	10	1	-6	i	.	-5	2
CC(=O)Nc1cccc(C(=O)OCC(=O)NC(C)c2ccc(F)cc2)c1 (stereo unspecified)	24	3	1	-6	i	0	.	0
COc1ccc(-c2nc3nc(C)cc(=O)n3[nH]2)cc1	0	-1	2	-10	i	.	-5	-2
Cc1nn(C)cc1CNC(=O)Nc1cccc(Cl)c1	4	1	1	6	i	12	-19	-3
Cc1ccc2oc3nc(C)c(C(=O)Nc4cccc(C(F)(F)F)c4)cc3c(=O)c2c1	4	3	2	-2	i	.	-1	11
Clc1ccc(-c2csc(N/N=C/c3cccnc3)n2)c(Cl)c1	9	-6	-14	-2	i	16	.	23
COc1ccccc1CNC(=O)Cc1ccccc1	-5	0	0	-4	i	-10	-5	-7
O=C(CNC(=O)c1ccccc1)N/N=C/c1ccc([N+](=O)[O-])s1	-17	-4	-12	22	i	5	.	-1
CC(=O)c1ccc(-c2ccc([C@H]3[C@@H]4C=CCC[C@@]4(C)C(=O)N3Cc3ccccc3)c(F)c2)cc1	6	5	-10	-7	i	37	-18	121*
COc1ccc(C(=O)NNC(=O)CCn2nnc(-c3ccc(Cl)cc3)n2)cc1OC	-10	.	.	-7	i	11	.	-4
O=C(NCCCCc1ccccc1)c1ccc(Br)cc1	3	0	1	1	i	16	-10	18
CCCC(=NCc1ccccc1)C1=C(O)C(C(=O)OC)C(C)(C)CC1=O (stereo unspecified)	2	-4	-2	-4	i	.	-2	-4
O=c1oc2c3c4c(cc2c2c1CCC2)OCCN4CCC3	?	-12	-2	?	.	-469	3	16
COc1ccc(CN2CCN(C(=O)C3CC(=O)N(C4CCCCCC4)C3)CC2)c(OC)c1OC (stereo unspecified)	3	0	-13	-9	i	.	-1	-12
CCOc1ccccc1N1CCN(C(=O)c2cccc(S(=O)(=O)N3CCOCC3)c2)CC1	.	3	2	.	.	7	6	.
Cc1cc(C)c2nc(N(CCCN(C)C)C(=O)c3ccc4c(c3)CCCC4)sc2c1	.	.	.	.	+	-16	.	-1
O=c1o[nH]c(-c2ccccc2)c1C=Nc1ccc(Cl)cc1	6	0	-1	1	i	0	-3	24
Cc1ccc(CCCOC(=O)CN2CCCCC2)cc1	1	0	3	6	i	14	.	-14
O=C(Nc1ccc(Cl)c(Cl)c1)Nc1nnc(CC2=CCCCC2)s1	12	-9	-21	5	i	33	.	31
CC1CCc2sc3nc(NCc4ccco4)n4ncnc4c3c2C1 (stereo unspecified)	1	2	0	2	i	.	-15	-13

The final 6 records of the section before open the next one.
SMILES	PABP polyA inh	MT1-MMP act inh	MT1-MMP act inh RFP	eIF4H FP inh	Rce1 inhib	HIV Env fusion	UUG fidelity	CSC inhib	others
CCOc1ccccc1N1CCN(C(=O)c2cccc(S(=O)(=O)N3CCOCC3)c2)CC1	.	3	2	.	.	7	6	.
Cc1cc(C)c2nc(N(CCCN(C)C)C(=O)c3ccc4c(c3)CCCC4)sc2c1	.	.	.	.	+	-16	.	-1
O=c1o[nH]c(-c2ccccc2)c1C=Nc1ccc(Cl)cc1	6	0	-1	1	i	0	-3	24
Cc1ccc(CCCOC(=O)CN2CCCCC2)cc1	1	0	3	6	i	14	.	-14
O=C(Nc1ccc(Cl)c(Cl)c1)Nc1nnc(CC2=CCCCC2)s1	12	-9	-21	5	i	33	.	31
CC1CCc2sc3nc(NCc4ccco4)n4ncnc4c3c2C1 (stereo unspecified)	1	2	0	2	i	.	-15	-13
CC(=O)c1cccc(NC(=O)C2CCCN2S(=O)(=O)c2cccs2)c1 (stereo unspecified)	.	0	-2	.	.	-24	-3	.
Cc1cc(C)c2c(CN3CCCCC3)cc(=O)oc2c1	-10	1	-1	-1	i	17	-21	-9
Cc1ccc(-c2cc(C(=O)NN3CCOCC3)c3cc(Br)ccc3n2)o1	3	2	-1	-2	i	-9	.	-3
CCN1CCN(C(=S)c2ccc(Cl)cc2)CC1	7	-2	0	-7	i	-8	.	-10
COC(=O)Cn1c(C(F)(F)F)nc2ccccc21	6	0	6	-1	i	-107	-19	-25
CC(=O)N1CCN(C(=O)c2cccc(S(=O)(=O)N3CCOCC3)c2)CC1	.	2	2	.	.	2	0	.
COc1ccccc1-c1cc(SC)c(C#N)c(=O)o1	4	2	-1	2	i	-1	.	10
N#Cc1ccc(CSc2nnc(Nc3ccccc3)s2)cc1	-14	-6	-4	-4	i	-219	-9	35
CSc1ncc(CN2CCN(C(C)C)C(CCO)C2)cn1 (stereo unspecified)	2	0	6	2	i	1	.	-20
c1ccc(Cc2nnc3n2N=C(c2ccccc2)CS3)cc1	4	1	2	-10	i	22	.	-5
COC(=O)c1ccc(Nc2nc(C)nc3c2nnn3Cc2ccccc2)cc1	9	-7	-3	-4	i	19	-9	-8
COc1ccccc1C(=O)NCCC(=O)N(C)CC(=O)Nc1c(Cl)cccc1Cl	.	-4	1	.	i	-8	-14	10
CCOC(=O)N1CCC(NC(=O)c2cccc3c2C(=O)N(Cc2cccnc2)C3)CC1	0	8	7	0	i	-10	-6	-4
CC(C(=O)NN=C(c1ccccc1)c1ccccc1)N1CCCC1 (stereo unspecified)	-8	-8	-1	-8	i	-4	.	8
COc1ccccc1N(C)S(=O)(=O)c1ccc(C(=O)OCC(=O)Nc2ccccc2F)cc1	26	3	7	-3	.	14	-15	4
CC1(C)CC(=O)N(CC(=O)N2CCN(c3ncccn3)CC2)c2ccccc2S1(=O)=O	-12	7	10	-3	.	16	9	-21
Cc1cc(NS(=O)(=O)c2ccc(NC(=O)Cc3ccc(Cl)c(Cl)c3)cc2)no1	.	17	3	.	.	6	-19	.
Cc1cccc(C)c1OCc1nnc(SCC(=O)NCc2ccccc2)o1	20	3	2	-9	i	.	-7	-2

Bioassay records from PubChem BioAssay.
